HNF4A DNA FP – change in binding of human HNF4 alpha to DNA; HNF4a-FITC DNA binding, fluorescence polarization, 1 h; hit rate 0.3% among 360,000; activity change, % at 10 µM; P41235; in the data active means activity change above about 30%, passing the limit was not always enough;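 further: controls were the assay level and a saturating level of protein; the project sought stronger binding though the title names inhibitors; some compounds called inactive have numbers as strong as hits; positive values seem to mean higher polarization but the record does not say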
B2AR ag – human beta-2 adrenergic receptor agonism by FAP; P07550; Am2.2-beta2AR cells, FAP receptor internalization, flow cytometry; reference of the scale not given here; response, % (no concentration beside the values); hit rate 0.43% among 340,000;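 active means response above a set limit, near 3 SD of response in nonfluorescent compounds, cut at about 42% in these data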;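 further: stock transfer was 100 nL into about 11 µL; a reference agonist was the positive control; negative values mostly stem from fluorescent compounds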
Target sequence (P07550 whole entry, looked up): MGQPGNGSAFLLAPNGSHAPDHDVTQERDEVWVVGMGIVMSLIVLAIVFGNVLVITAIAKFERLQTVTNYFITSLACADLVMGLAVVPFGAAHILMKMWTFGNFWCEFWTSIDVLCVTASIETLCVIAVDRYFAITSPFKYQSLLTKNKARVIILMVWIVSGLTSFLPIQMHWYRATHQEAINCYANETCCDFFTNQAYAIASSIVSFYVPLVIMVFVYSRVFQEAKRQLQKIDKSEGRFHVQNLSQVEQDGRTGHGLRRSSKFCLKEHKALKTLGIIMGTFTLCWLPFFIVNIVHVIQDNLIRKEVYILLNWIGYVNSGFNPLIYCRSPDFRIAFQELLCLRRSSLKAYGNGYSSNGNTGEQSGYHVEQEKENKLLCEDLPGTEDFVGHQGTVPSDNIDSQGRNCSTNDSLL
UCH37 inh – human UCH37 deubiquitinating enzyme inhibition | Q9Y5K5 | purified proteasome/UCH37, Ub-AMC cleavage fluorescence | inhibition, % (concentration not given with the values) | hit rate 0.33% among 330,000 | AID 588478;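 active means mean of two replicates above 20%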;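 further: 0% = compound-free wells with enzyme and 100% = wells lacking proteasome; stock transfer was 100 nL into about 20 µL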
Target sequence (Q9Y5K5 whole entry, looked up): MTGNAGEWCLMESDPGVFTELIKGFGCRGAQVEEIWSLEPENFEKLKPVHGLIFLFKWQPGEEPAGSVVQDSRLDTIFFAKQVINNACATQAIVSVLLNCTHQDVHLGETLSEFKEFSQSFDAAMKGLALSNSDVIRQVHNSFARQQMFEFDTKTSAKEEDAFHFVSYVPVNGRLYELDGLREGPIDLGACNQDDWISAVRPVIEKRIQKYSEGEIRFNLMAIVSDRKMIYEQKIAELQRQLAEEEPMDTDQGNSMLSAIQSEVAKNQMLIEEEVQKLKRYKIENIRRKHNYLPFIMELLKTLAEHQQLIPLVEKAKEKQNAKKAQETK
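System: Proteasome-associated human UCH37 deubiquitinase; Input: 0.15 nM proteasome in added enzyme buffer; Also added: Ub-AMC substrate from 1 µM stock; Incubation: 30 min compound-proteasome preincubation then 25 min substrate reaction, room temperature; Detection: fluorescence, ex 355 nm, em 460 nm; Read-out: % inhibition of Ub-AMC cleavage fluorescence; Benchmarks: no-proteasome and no-compound wells.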
FGF22 binding – shifts melting point of recombinant human FGF22. recombinant FGF22 thermal shift, SYPRO orange fluorescence; percent of sucrose octasulfate shift, DMSO zero. calls only at 9.99 µM. hit rate 1.5% among 340,000. AID 651658;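 active means melting point raised past a set limit in the mean and every replicate; three in four hits are not shown here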
E coli growth – blocks Escherichia coli growth. hit rate 0.21% among 330,000. OD600 absorbance (no concentration beside the values). OD600, 23 h; hits give low values;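 active means OD600 absorbance below the run mean of sample wells minus 3.6 SD, in any replicate, cut at about 0.56 in these data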;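 further: stock transfer was 300 nL into about 60 µL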
rRNA inh HTS – inhibits bacterial ribosomal RNA function over humanized ribosomes; E. coli WT GFP vs humanized-ribosome RFP mutants, fluorescence, 24 h; hits give low values; DMSO median 0, no signal -100; GFP signal change (wild-type ribosome), % (no concentration beside the values); hit rate 1.6% among 350,000; AID 720706;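 active means significant combined selectivity score with lowered wild-type GFP, culture density cut under 30%, mutant RFP and density less affected; inactive means any of these conditions unmet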; further: one replicate is shown; some compounds called inactive have numbers as strong as hits
ALR H2O2 inh – human ALR oxidase inhibition via reduced H2O2. P55789. purified ALR, DTT oxidation, H2O2 HRP-luminol luminescence. inhibition, % (concentration not given with the values). hit rate 3.8% among 290,000;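 active means mean and each replicate at 75% or more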;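 further: stock transfer was 7.5 nL into about 7.5 µL; 0% = neutral wells and 100% = wells with inactivated enzyme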
Target sequence (P55789 whole entry, looked up): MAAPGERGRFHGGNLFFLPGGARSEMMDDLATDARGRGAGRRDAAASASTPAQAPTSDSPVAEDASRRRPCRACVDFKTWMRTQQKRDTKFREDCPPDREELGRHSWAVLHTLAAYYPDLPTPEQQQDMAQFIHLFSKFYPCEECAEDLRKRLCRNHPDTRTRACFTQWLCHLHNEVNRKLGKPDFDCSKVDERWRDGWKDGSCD
rRNA inh HTS OD600 – recorded beside rRNA inh HTS, whose call it bears; OD600 change, %; measured here: OD600 growth;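 optical density of the mix in the first replicate; 0 = DMSO median and -100 = no signal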
rRNA inh HTS RFP – further read-out of rRNA inh HTS, marked with its call; RFP signal change, %; measured here: RFP humanized mutant strains;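 first replicate; 0 = DMSO median and -100 = no signal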
The depositor's hits bear a star; i = inactive; . = not tested or not shown. An excerpt, so the mix of outcomes need not match the whole.

SMILES	HNF4A DNA FP	B2AR ag	UCH37 inh	FGF22 binding	E coli growth	rRNA inh HTS	rRNA inh HTS OD600	rRNA inh HTS RFP	ALR H2O2 inh
CCC1(Cc2ccccc2)NC(=O)c2ccccc2O1 (stereo not drawn)	1.6	1	6.5	i	0.68	-19	-20	1.2	-30
O=C(C[n+]1ccc(-c2nnc3n2CCC3)cc1)c1ccc(Cl)c(Cl)c1	-1.2	-11	-2.1	i	0.7	-12	-3	2.3	-11
Cc1ccc(-n2nnnc2-c2cnn(-c3ccc(F)cc3)c2C(F)(F)F)cc1	-1.9	-2	2.3	.	0.72	.	.	.	-2
CN(Cc1ccccc1)C(=O)c1[nH]cnc1C(=O)NCC(=O)OC(C)(C)C	-1.8	-3	0.8	i	0.66	3	4	-3.1	-4
Cn1c(-c2nnn(-c3ccc(F)cc3)n2)cc2ccccc21	.	.	-9.2	i	.	5	18	-8.7	15
CC1Cc2ccccc2N1C(=O)Cn1c(=O)oc2cc(S(=O)(=O)N3CCCCC3)ccc21 (stereo not drawn)	1.6	9	4.8	i	0.7	5	7	0.6	.
COc1ccc(S(C)(=O)=O)cc1S(C)(=O)=O	4.0	4	5.8	.	0.67	.	.	.	0
CCCCNC(=O)CCn1c(=O)c2ccccc2n(CC(=O)NCCc2ccc(OC)c(OC)c2)c1=O	3.4	-6	1.3	i	0.7	-1	-4	-10.0	-10
O=C(O)c1[nH]c2ccccc2c1C(c1cc(Cl)cc([N+](=O)[O-])c1O)c1c(C(=O)O)[nH]c2ccccc12	-21	-2	13	i	0.68	-2	-1	-8.4	.
COc1ccc(/C=N/NS(=O)(=O)c2ccc(F)cc2)cc1CN1CCSCC1	-1.6	-1	.	i	.	2	0	-3.2	6
COc1ccc(CNC(=O)[C@@H]2CC=C[C@@H]3CCN(C4CCCCC4)C(=O)[C@@H]32)cc1	0.8	-7	4.1	i	.	-10	-5	-9.8	-11
OCCc1ccc(O)cc1	0.5	-8	0.5	i	.	-2	3	1.9	22
C=CCNc1nc2c(c(=O)[nH]c(=O)n2C)n1CCOc1ccccc1	-0.3	-4	-1.3	i	0.68	17	8	-0.3	-8
O=C1CSC(c2ccc(F)cc2)N1c1c(F)cccc1F (stereo not drawn)	0.2	-1	1.3	i	0.69	3	-2	3.0	-2
O=C(CSCc1c(F)cccc1Cl)Nc1cccnc1	-2.8	0	0.3	i	0.68	9	-7	0.2	23

Just ALR H2O2 inh, rRNA inh HTS RFP and FGF22 binding, for 3 of the compounds above:
SMILES	ALR H2O2 inh	rRNA inh HTS RFP	FGF22 binding
CCC1(Cc2ccccc2)NC(=O)c2ccccc2O1 (stereo not drawn)	-30	1.2	i
O=C(C[n+]1ccc(-c2nnc3n2CCC3)cc1)c1ccc(Cl)c(Cl)c1	-11	2.3	i
Cc1ccc(-n2nnnc2-c2cnn(-c3ccc(F)cc3)c2C(F)(F)F)cc1	-2	.	.

(cont.)
SMILES	HNF4A DNA FP	B2AR ag	UCH37 inh	FGF22 binding	E coli growth	rRNA inh HTS	rRNA inh HTS OD600	rRNA inh HTS RFP	ALR H2O2 inh
O=C(Nc1ccc(O)cc1)c1ccc2c(c1)C(=O)N(Cc1cccnc1)C2=O	-2.2	-1	5.4	i	0.72	8	18	-1.5	-11
COc1ccc(Br)cc1CN(C)C(=O)CNC(=O)c1ccc2ccccc2c1	2.9	-1	-0.1	i	0.69	-11	-26	-1.6	.
COc1ccc(Cl)cc1NC(=O)CN(C)C1CCS(=O)(=O)C1 (stereo not drawn)	3.1	-2	-1.1	i	0.68	6	9	0.0	.
COc1cccc(NC(=O)C(=O)N/N=C/c2ccc3c(c2)OCO3)c1	-0.6	6	.	i	.	7	10	1.2	16
CCN(CC)c1ccc(/C=N/N2CCN(Cc3ccccc3Cl)CC2)cc1	-0.3	23	.	i	.	-13	-14	-1.6	60
Nc1cc(=O)[nH]c(SCC(=O)NC2CCCc3ccccc32)n1 (stereo not drawn)	-2.3	0	2.5	i	0.65	14	2	2.4	-4
O=C(NCCS(=O)(=O)N1CCN(c2cccc(Cl)c2)CC1)c1ccco1	-0.3	4	5.3	i	0.68	-5	-6	-1.0	1
CC(NC(=O)Cc1ccc([N+](=O)[O-])cc1)c1ccc2c(c1)OCO2 (stereo not drawn)	-3.5	-13	3.6	i	0.68	16	10	3.2	1
Nc1nnc(SCC(=O)Nc2cccc(S(=O)(=O)N3CCOCC3)c2)s1	2.5	-2	0.1	i	0.63	12	2	0.5	-5
OCCc1c[nH]c2ccc(C(F)(F)F)cc12	-0.1	-9	.	i	.	-24	-31	5.9	2
Cc1ccc(S(=O)(=O)N2CCCC2C(=O)NCCc2ccccc2)cc1 (stereo not drawn)	-1.8	-3	0.7	i	0.72	-10	-8	-1.4	6
N=c1c2c(-c3ccccc3)c(-c3ccccc3)oc2ncn1CCN1CCOCC1	0.7	-7	-3.1	.	0.66	.	.	.	.
COc1ccc(NC(=O)C(=O)N2N=C(C(C)C)CC2(O)C(F)(F)F)cc1 (stereo not drawn)	-3.3	11	6.1	.	0.69	.	.	.	-1
COc1ccc(/C=C/CN2CCC(CO)(Cc3ccccc3Cl)CC2)cc1	2.2	10	6.1	i	0.63	-16	-32	4.1	4
Cc1cc(F)ccc1-c1cc(C(=O)Nc2ccc(F)cc2)[nH]n1	-0.1	.	.	i	.	3	3	-0.9	.
Cc1ccc(S(=O)(=O)N(C)CC(=O)N2CCN(c3ccccn3)CC2)cc1	0.7	99*	-0.9	.	0.68	.	.	.	-8
O=[N+]([O-])c1cc2c(c([N+](=O)[O-])c1)Nc1ccccc1O2	4.5	.	.	i	.	1	7	16	.
CCNc1nc(Oc2ccc(C(=O)OC)cc2)nc(N(C)C)n1	-1.6	8	-1.6	.	0.74	.	.	.	4
CCC1(CC)Cc2ccccc2-c2nc(CCl)[nH]c(=O)c21	2.5	10	0.5	i	0.68	-29	-31	-5.1	9
CCCCN(C)CCN1C(=O)C2C(C(=O)Nc3ccc(OC)cc3)C3C=CC2(O3)C1C(=O)NC1CCCCC1 (stereo not drawn)	2.5	6	1.4	i	0.68	3	5	1.5	2
CCOc1ccc(NS(=O)(=O)c2ccc(C(=O)N(C)CC(=O)Nc3ccc(OC)cc3)cc2)cc1	1.7	5	1.5	i	0.64	-7	-2	6.2	-1
O=C(c1ccc(Cn2cc(Br)cn2)o1)n1cccn1	0.9	-12	3.7	.	0.69	-9	5	-4.8	-2
CCCC(=O)Nc1ccc(C(=O)N/N=C/c2ccc([N+](=O)[O-])o2)cc1	0.9	-17	.	i	.	.	.	.	-29
CC1CCCCC1NC(=O)COn1nnc2ccc(Cl)cc21 (stereo not drawn)	-0.6	-6	-0.6	.	0.7	.	.	.	-4
CCOC(=O)c1cc2c(nc1N)CC(C)(CC)OC2 (stereo not drawn)	1.0	-4	-350	.	0.71	.	.	.	-5
O=C(NC1CCCCC1)N(Cc1nc2ccccc2c(=O)[nH]1)C1CCCC1	1.0	-6	-1.0	.	0.67	.	.	.	8
COc1ccc(C(=O)OCC[N+]2(C)CCCCC2)cc1	-5.5	2	0.4	i	0.67	26	19	3.4	.
COc1ccc(CC(=O)Nc2ccc3nc(SC)sc3c2)cc1OC	2.6	-8	3.1	i	0.7	-14	-3	-0.2	-7
CC1CCN(Cc2cc(=O)oc3cc(O)c(Cl)cc23)CC1	-4.3	7	i	i	0.65	9	5	-1.7	.
C=CCn1cc(CN2CCC(C(=O)Nc3cccc(-c4cccc(Cl)c4)c3)CC2)c(C)n1	3.3	22	4.1	i	0.65	-53	-79	-18	.

Single records, as listed above. Order of screens: HNF4A DNA FP | B2AR ag | UCH37 inh | FGF22 binding | E coli growth | rRNA inh HTS | rRNA inh HTS OD600 | rRNA inh HTS RFP | ALR H2O2 inh
Profile of COc1ccc(C(=O)OCC[N+]2(C)CCCCC2)cc1 → -5.5 | 2 | 0.4 | i | 0.67 | 26 | 19 | 3.4 | .
Profile of CCCCN(C)CCN1C(=O)C2C(C(=O)Nc3ccc(OC)cc3)C3C=CC2(O3)C1C(=O)NC1CCCCC1 (stereo not drawn) → 2.5 | 6 | 1.4 | i | 0.68 | 3 | 5 | 1.5 | 2
Profile of O=[N+]([O-])c1cc2c(c([N+](=O)[O-])c1)Nc1ccccc1O2 → 4.5 | . | . | i | . | 1 | 7 | 16 | .
Profile of O=C(c1ccc(Cn2cc(Br)cn2)o1)n1cccn1 → 0.9 | -12 | 3.7 | . | 0.69 | -9 | 5 | -4.8 | -2
Profile of CCC1(CC)Cc2ccccc2-c2nc(CCl)[nH]c(=O)c21 → 2.5 | 10 | 0.5 | i | 0.68 | -29 | -31 | -5.1 | 9

(more compounds)
SMILES	HNF4A DNA FP	B2AR ag	UCH37 inh	FGF22 binding	E coli growth	rRNA inh HTS	rRNA inh HTS OD600	rRNA inh HTS RFP	ALR H2O2 inh
CCOc1ccc(N2C(=O)CC(N(CCc3ccc(OC)cc3)C(=O)/C=C/C(=O)O)C2=O)cc1 (stereo not drawn)	3.2	1	2.4	i	0.62	-17	-24	-3.2	-3
CC1CCN(S(=O)(=O)c2nnc(NC(=O)COc3ccccc3)s2)CC1	2.7	3	3.0	i	0.73	2	13	3.4	0
COc1ccc(CC2(C)OC(c3ccccc3)=NN2C(C)=O)cc1 (stereo not drawn)	0.7	-4	-6.3	.	0.72	.	.	.	-5
CC1CCc2c(sc3ncnc(NS(=O)(=O)c4cccs4)c23)C1 (stereo not drawn)	4.8	1	0.3	i	0.72	11	14	2.3	-7
CCc1cc2c(SCC(=O)NC(=O)c3cccn3C)ncnc2s1	3.5	-1	-1.4	i	0.66	-1	-1	0.0	-2
CCN1CCN=C1Nc1ccccc1	0.6	4	3.2	i	0.7	5	15	7.9	.
CCOc1ccccc1N(CC(=O)Nc1ccc(C)cc1)S(C)(=O)=O	-0.2	-1	1.1	.	0.7	.	.	.	.
Cc1c(C(=O)OC(C)C)sc(NC(=O)c2cnccn2)c1C(=O)OC(C)C	-4.5	-4	1.9	i	0.7	4	6	0.7	.
COc1ccc(N=C(N)N=C(N)N)c(OC)c1	-3.3	0	-2.7	.	0.62	.	.	.	1
O=P(c1ccccc1)(c1ccccc1)c1nc(-c2ccc(Cl)cc2)oc1N1CCOCC1	-3.5	-5	-86	i	0.69	.	.	.	-15
Cc1ccnc(Nc2nc(-c3c(C)nc4sccn34)cs2)c1	1.2	2	-1.7	.	0.7	.	.	.	18
COc1ccc(NC(=O)C2CCN(S(=O)(=O)c3c(C)noc3C)CC2)cc1	-1.1	2	0.8	i	0.69	6	24	-0.6	-4
O=C(CS(=O)c1ccc(C(F)(F)F)cc1[N+](=O)[O-])Oc1ccccc1 (stereo not drawn)	-2.5	98*	7.8	.	0.73	.	.	.	99*
Cc1cc(NC(=O)CSc2nccn2C)no1	1.2	-2	5.4	i	0.71	9	14	1.0	-9
C(=N\Nc1nc(N2CCCC2)nc(N2CCCC2)n1)/c1ccccc1OCc1ccccc1	-4.5	-18	.	i	.	12	10	1.5	-5
CCc1nc(SCCO)c2oc3ccccc3c2n1	5.2	-14	4.4	.	0.82	.	.	.	0
O=C(c1nc2ccccn2c1CNCCOc1cccnc1)N1CCOCC1	1.4	-17	0.8	i	0.75	13	13	0.7	-5
CCOc1ccc(NC(=O)c2ccc(CSc3nnc(C)s3)cc2)cc1	-6.0	-3	6.6	i	0.65	-2	-3	-1.4	65
O=C(Nc1cccc(-c2ccc(F)cc2)c1)C1CCCN(Cc2cccnc2)C1 (stereo not drawn)	0.5	-3	.	i	.	-10	-25	-0.1	-11
